Screening data (PubChem)
Sa growth inh = S. aureus growth inhibition at 42 and 30 °C, primary screen, LtaS inhibitor project, RN4220, two temperatures | relative growth, % (test concentration not listed) | AID 720641, 2013 | 170,000 compounds, 0.53% hits | OD600, 20 h, 42 °C; stronger effect = lower value;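 active means growth at 42 °C up to 50% and 20 or more points under that at 30 °C, or under 10% at both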;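 further: 300 nL library stock went into each well; scaled to the means of positive and negative controls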
HCMV UL50-53 inh = inhibitors of HCMV UL50-UL53 interaction, biochemical, HTRF; normalized percent inhibition; inhibition, % (test concentration not listed); 190,000 compounds, 0.15% hits;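 active means both replicates at 50% or more, plus weaker picks with an unusually low signal ratio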;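 further: stock transfer was 100 nL into about 20 µL; 0% = negative control wells and 100% = wells with untagged competitor protein; inactives centre near -12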
GIV-Gai inh = inhibitors of GIV peptide binding to Galpha-i3, primary screen, biochemical, fluorescence polarization, FITC-GIV GBA peptide, rat Galphai3; Guanine nucleotide-binding protein G(i) subunit alpha-3 (Rattus norvegicus), P08753; 90 min; stronger effect = lower value; scaled: aluminum fluoride 0%, vehicle 100%; percent of control (FP), % (test concentration not listed); 210,000 compounds, 0.42% hits; AID 1224905, 2016;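 active means replicate mean at 85% of control or lower, very high polarization wells dropped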;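 further: wells of about 15 µL received 100 nL stock; the first replicate is given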
Target sequence (P08753 whole entry, looked up): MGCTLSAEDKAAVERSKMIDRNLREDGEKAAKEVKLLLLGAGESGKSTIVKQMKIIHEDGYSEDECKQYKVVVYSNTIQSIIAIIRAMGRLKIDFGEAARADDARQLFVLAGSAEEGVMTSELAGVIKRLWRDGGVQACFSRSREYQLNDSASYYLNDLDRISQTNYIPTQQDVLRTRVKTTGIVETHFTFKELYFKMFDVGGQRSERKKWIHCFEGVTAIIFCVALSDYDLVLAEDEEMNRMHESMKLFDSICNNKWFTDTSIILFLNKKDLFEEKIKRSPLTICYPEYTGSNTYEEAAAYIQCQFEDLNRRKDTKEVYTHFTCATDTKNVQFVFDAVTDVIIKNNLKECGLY
Sa growth inh second temp = recorded beside Sa growth inh, whose call it bears; relative growth, %; measured here: growth at 30 °C;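 optical density after 20 h as mean of two plates; 100% = untreated growth and lower means inhibition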
* = called active by the depositor; nt = no result given; & = joins results of further samples.

Under each structure – Sa growth inh	Sa growth inh second temp	HCMV UL50-53 inh	GIV-Gai inh
> O=C(c1cc(F)cc(F)c1)N1CCC(c2noc(-c3ccc(S(=O)(=O)N4CCCC4)cc3)n2)CC1
  nt	nt	16.1	107.0
> CN(C)CCN(Cc1ccccc1)Cc1c(F)cccc1Cl
  104.7	102.7	-6.7	105.5
> Cc1csc2nc(COC(=O)CSc3ccccc3)cc(=O)n12
  95.3	88.3	5.8	107.2
> O=C(NN1C(=O)S/C(=C/c2ccc(Cl)cc2)C1=S)c1ccccc1Cl
  99.2	85.4	nt	100.9
> CC(=O)Nc1nonc1NC(C)=O
  100.3	91.7	-8.7	107.1
> Cc1ccc(Nc2nc(C(=O)NCC3CCCO3)cs2)cc1 (configuration not stated)
  128.6	87.8	4.4	104.0
> NC(=O)Cn1c(=O)n(CCC(=O)NCCc2ccc(Cl)cc2)c(=O)c2sccc21
  77.1	90.6	nt	102.0
> CP(=O)(O)CN1CCN(CP(C)(=O)O)CC1
  107.4	110.1	-1.7	102.3
> O=C(c1ccc[nH]1)c1cc2cc(Br)ccc2o1
  80.1	92.7	-15.5	nt
> CCN(CC)CC(=O)OC1CC2CCC1(C)C2(C)C (configuration not stated)
  95.1	86.3	-7.2	nt

Five compounds already listed, arranged by the number in GIV-Gai inh, falling.
SMILES,GIV-Gai inh
Cc1csc2nc(COC(=O)CSc3ccccc3)cc(=O)n12,107.2
CC(=O)Nc1nonc1NC(C)=O,107.1
O=C(c1cc(F)cc(F)c1)N1CCC(c2noc(-c3ccc(S(=O)(=O)N4CCCC4)cc3)n2)CC1,107.0
Cc1ccc(Nc2nc(C(=O)NCC3CCCO3)cs2)cc1 (configuration not stated),104.0
O=C(NN1C(=O)S/C(=C/c2ccc(Cl)cc2)C1=S)c1ccccc1Cl,100.9

(next part)
Under each structure – Sa growth inh	Sa growth inh second temp	HCMV UL50-53 inh	GIV-Gai inh
> O=C(Nc1ccc(Br)cc1)C(Cc1ccccc1)NS(=O)(=O)c1cccc2nsnc12 (configuration not stated)
  119.3	91.5	nt	104.6
> CCOC(=O)COc1ccc(C=C2C(=O)NC(=O)NC2=O)cc1Br
  95.7	81.8	8.4	104.9
> CCC1CCCCN1CCCNC(=O)c1ccc2c(c1)sc1nc(-c3ccc(F)cc3)cn12 (configuration not stated)
  113.0	56.3	nt	103.3
> C=Cc1ccc(CN(c2nc3nc(C)c(Cl)c(C)n3n2)S(=O)(=O)c2ccc(Cl)cc2)cc1
  nt	nt	-6.9	105.8
> CN1CCN(C(=O)c2ccccc2NC(=O)COc2ccc(Cl)cc2)CC1
  97.3	97.5	-8.3	110.3
> C=CCN1C(=O)C(CC(=O)Nc2ccccc2)N(Cc2ccccn2)C1=S (configuration not stated)
  82.1	74.5	nt	105.7
> CCN(CCO)c1ncnc2onc(-c3ccccc3C)c12
  98.3	87.6	-37.6	98.8
> COCCNC(=O)c1ccc2c(=O)n(Cc3ccccc3)c(SCC(=O)c3ccc(F)cc3)nc2c1
  nt	nt	-6.2	103.3
> COc1cc(OC)cc(C(=O)Nc2cccc(-c3cn4ccsc4n3)c2)c1
  73.6	74.2	nt	107.1
> Cc1ccc(C)c(CN2C(=O)c3ccccc3S(=O)(=O)c3ccc(C(=O)N4CCCC4)cc32)c1
  109.9	83.9	-6.6	105.3
> O=C(NCc1ccccc1Cl)c1ccc2c(c1)N(Cc1ccccc1)CCS2
  111.0	98.2	-4.1&-29.1	109.5&105.8
> O=S(=O)(Nc1ncccn1)c1ccccc1
  88.0	81.0	-16.4	97.3
> COc1ccc(-c2nnn3c2nc(NCCc2ccc(OC)c(OC)c2)c2ccccc23)cc1
  107.7	68.9	-8.1	114.5
> CC(=O)N1CCC(C(=O)OCC(N)=O)(c2ccccc2)CC1
  108.8	88.6	-38.2	nt
> CC1C(c2ccccc2)CC(C(=O)O)C1(C)C (configuration not stated)
  131.5	141.4	-1.5	nt
> Cc1ccc(OCCOc2ccc([N+](=O)[O-])cc2-c2nc3sc4c(c3c(=O)[nH]2)CCCC4)cc1
  nt	nt	-5.4	111.6
> COc1ccc(N2CCN(Cc3cccn3-c3nnc(N4CCN(c5ccccc5)CC4)s3)CC2)cc1
  nt	nt	-1.5	103.9
> COc1ccc(CC(=O)Oc2ccc(F)cc2)cc1
  103.0	102.1	-22.1	104.0
> Cc1cccc(C)c1NC(=O)NC1CCc2ccccc21 (configuration not stated)
  101.8	92.8	nt	101.4
> COc1ccc(C(=O)c2cn(Cc3ccccc3OC)c3cc4c(cc3c2=O)OCO4)cc1
  104.2	90.4	-40.8	98.0
> COc1ccc(OC)c(NS(=O)(=O)c2cc3c(cc2Cl)N(C(C)=O)CCO3)c1
  101.7	106.0	nt	105.2
> COc1ccc(N2C(=O)c3cc4sccc4n3CC2(C)C(=O)NC2CCCCC2)cc1OC (configuration not stated)
  nt	nt	-4.1	103.8
> CCNc1ccc(C(=O)O)cc1N
  88.7	89.5	-16.0	nt
> CCn1nc(C)cc1-c1nnc(SCc2ccc(C(F)(F)F)cc2)o1
  95.4	104.2	-0.7	100.3
> CCc1ccc2oc(-c3cc(N)cc(C)c3O)nc2c1
  104.0	90.4	nt	105.2
> CN(c1ccccc1)S(=O)(=O)c1cn(C)c(=O)n(C)c1=O
  101.2	85.3	-14.2	nt
> O=C(O)c1cc(C(=O)O)cc(N2C(=O)c3ccccc3C2=O)c1
  95.2	91.0	-22.0	93.0
> Nc1c(C(=O)c2ccco2)oc2ccccc12
  80.8	77.4	-67.2	nt
> CC(=O)N1CCCc2cc(S(=O)(=O)N3CC=C(c4ccccc4)CC3)ccc21
  98.0	76.7	1.1	94.8
> CCOC(=O)NC(=S)Nc1ccc(F)cc1F
  94.5	84.2	-33.3	110.6

Entries of single compounds, looked up by structure. Values in the order: Sa growth inh	Sa growth inh second temp	HCMV UL50-53 inh	GIV-Gai inh
Nc1c(C(=O)c2ccco2)oc2ccccc12 in the list: 80.8	77.4	-67.2	nt
COc1ccc(OC)c(NS(=O)(=O)c2cc3c(cc2Cl)N(C(C)=O)CCO3)c1 in the list: 101.7	106.0	nt	105.2
CN(c1ccccc1)S(=O)(=O)c1cn(C)c(=O)n(C)c1=O in the list: 101.2	85.3	-14.2	nt

Other records:
Under each structure – Sa growth inh	Sa growth inh second temp	HCMV UL50-53 inh	GIV-Gai inh
> CC(C)NC(=O)CN1CCn2nc(-c3ccccc3)cc2C1=O
  nt	nt	-20.1	103.9
> CCOC(=O)c1[nH]c(C)c(CCC(=O)Nc2ccc(C)cc2Cl)c1C
  110.5	94.8	nt	107.0
> CCCc1nc(SCC(=O)N2CCCC2)c2ccccc2n1
  90.1	84.3	-34.5	100.5
> O=C(Nc1ccc2c(c1)oc1ccccc12)C1CC1
  100.5	97.1	-8.4	98.4
> O=C1CCC(C(=O)N=c2sccn2Cc2ccc(Cl)cc2Cl)=NN1
  86.2	87.1	19.4	nt
> Cc1cc(NC(=O)c2sc3nc4c(cc3c2N)C2CCN4CC2)no1
  92.3	89.5	-146.3	98.7
> Cc1cc(C)c2nc(N3CCC(C(=O)N4CCOCC4)CC3)sc2c1
  88.8	86.7	-0.7	99.9
> O=c1c(S(=O)(=O)c2ccc(F)cc2)c[nH]c2cc(Cl)c(F)cc12
  nt	nt	-7.8	109.5
> Fc1ccc(-c2csc3ncnc(NCCc4ccc5c(c4)OCO5)c23)cc1
  nt	nt	10.1	106.0
> Cc1ccc(CNC(=O)/C=C/C(=O)O)cc1
  90.1	97.0	-4.3	100.7

4 entries already listed, arranged by formula weight, low to high.
Under each structure – Sa growth inh	Sa growth inh second temp	HCMV UL50-53 inh	GIV-Gai inh
> Cc1cc(NC(=O)c2sc3nc4c(cc3c2N)C2CCN4CC2)no1
  92.3	89.5	-146.3	98.7
> CCOC(=O)c1[nH]c(C)c(CCC(=O)Nc2ccc(C)cc2Cl)c1C
  110.5	94.8	nt	107.0
> O=C1CCC(C(=O)N=c2sccn2Cc2ccc(Cl)cc2Cl)=NN1
  86.2	87.1	19.4	nt
> Fc1ccc(-c2csc3ncnc(NCCc4ccc5c(c4)OCO5)c23)cc1
  nt	nt	10.1	106.0

Next part.
Under each structure – Sa growth inh	Sa growth inh second temp	HCMV UL50-53 inh	GIV-Gai inh
> Cc1ccc(-n2nnnc2CNC(=O)C(C)C)cc1C
  101.0	85.5	nt	102.1
> COC(=O)c1scc(C)c1NS(=O)(=O)c1ccc2c(c1)CCO2
  101.3	91.9	-7.7	102.9
> Cc1nn2c(=O)/c(=C/c3ccccc3)sc2nc1=O
  86.9	82.8	nt	92.2
> O=C(O)CCCC(=O)Nc1ccc(-n2ccc(C(F)(F)F)n2)cc1
  89.3	86.3	-14.4	106.2
> O=C(CSc1nc2ccc(N3C(=O)c4ccccc4C3=O)cc2s1)c1ccccc1
  106.4	79.4	nt	99.8
> O=C(NCCC1=CCCCC1)c1cccc(N2C(=O)CCS2(=O)=O)c1
  nt	nt	-6.8	104.9
> Cc1cc(NC(=O)C2CC2)n(-c2ccccc2C(F)(F)F)n1
  87.9	94.9	2.1	nt
> CCC(C)NC(=O)CCC(=O)NNc1nc2ccccc2c2nc(C)nn12 (configuration not stated)
  106.2	94.1	11.7	98.5
> Cc1cc2oc3c(c(=O)c2cc1C)C1(C(=O)N(C)c2ccccc21)N(CC1CCCO1)C3=O (configuration not stated)
  nt	nt	-31.6	105.7
> CCOC(=O)c1sc2nc(CC(=O)OC)nc(N3CC(C)CC(C)C3)c2c1C (configuration not stated)
  nt	nt	-27.0	109.0
> Cc1cccc(-c2nn(-c3ccccc3)c3nc(OCC(=O)NCc4ccccc4)cc(C)c23)c1
  nt	nt	-12.9	101.5
> CC1CCN(S(=O)(=O)c2ccc3c(ccc(=O)n3CC(=O)NCc3ccccc3)c2)CC1
  92.8	82.2	nt	101.2
> CCOC(=O)Cn1c(=NC(=O)c2ccc(N3C(=O)CCC3=O)cc2)sc2cc(S(N)(=O)=O)ccc21
  94.4	89.8	-17.2	102.1
> Cc1ccccc1Cn1c(=O)n(CCc2ccccc2)c(=O)c2c(C)c(C)sc21
  102.2	91.1	-19.1	105.3
> Cc1cc2nc(NCCOc3ccccc3)c3ccccc3n2n1
  70.9	70.8	5.2	nt
> CCOC(=O)CN=C(c1ccccc1)c1ccccc1
  92.6	85.6	-5.8	nt
> Cc1cc(Nc2ccccc2C(=O)O)nc2nc3ccccc3c(=O)n12
  117.3	94.8	10.7	105.4
> COc1ccc(-c2cc(=O)oc3c(C)c(O)c(CN4CCCC(C)C4)cc23)cc1 (configuration not stated)
  100.7	89.7	-57.8	105.7
> CN(c1ccccc1C(N)=O)S(=O)(=O)c1ccccc1
  97.6	99.4	17.6	102.6
> CCCCc1c(C)nc2cc(-c3ccco3)[nH]n2c1=O
  108.9	95.5	-1.3	102.6
> CN(C)C(=O)COc1ccc2ccccc2c1
  99.4	87.1	-33.1	100.1
> CCCOc1ccc(CNC(=O)Cc2cccs2)cc1
  133.8	90.8	-10.2	106.4
> N#Cc1ccc(-c2cccs2)s1
  101.9	65.1	-30.9	102.2
> CCc1nc2n(n1)C(c1ccc3c(c1)OCO3)C(C(=O)Nc1ccccc1OC)=C(C)N2 (configuration not stated)
  74.6	90.0	-23.1	nt
> COc1ccc(-c2nc3c(c(SCC(=O)Nc4ccccc4F)n2)Cc2cc(C)ccc2O3)cc1
  102.6	88.0	-36.9	102.2
> COC(=O)CS(=O)(=O)c1nccn1C
  100.5	96.3	11.6	107.6
> Fc1cccc(-n2ncc3c2ncn2nc(-c4ccccc4)nc32)c1
  99.7	94.8	3.6	104.7
> O=C(c1cn(-c2ccc(F)cc2F)c(=O)c2ccccc12)N1CCN(c2ccccc2)CC1
  103.3	94.4	nt	103.3
> CCOC(=O)c1nc(N(C)C2CCCCC2)c2ccccc2n1
  91.8	80.9	-18.2&-22.9	104.6&101.7
> CC1OCN(c2ccc(OC(F)(F)F)cc2)Cn2c1nc1ccc(Cl)cc12 (configuration not stated)
  92.6	65.5	-41.8	97.6
> Cc1ccc(-n2nc(N3CCCN(C(=O)c4cc5cc(Cl)ccc5[nH]4)CC3)ccc2=O)cc1
  nt	nt	-50.9	105.6
> CCNc1nc(NCC)nc(Oc2ccccc2C(=O)OC)n1
  nt	nt	-14.7	105.2
> CC(C)NC(=O)CN1CCN(Cc2c(O)ccc3cc(Br)ccc23)CC1
  80.0	93.6	-55.0	nt
> Cc1ccc2c(c1)N(C(C)C(=O)NCc1ccc3c(c1)OCO3)C(=O)CO2 (configuration not stated)
  103.5	97.5	-6.5	107.0
> CNS(=O)(=O)c1cn(CC(=O)Nc2cccc(OC)c2)cc1S(=O)(=O)NC
  85.3	85.6	nt	98.9

Exported tab-delimited: 2 of the compounds above.
molecule	Sa growth inh	Sa growth inh second temp	HCMV UL50-53 inh	GIV-Gai inh
CCC(C)NC(=O)CCC(=O)NNc1nc2ccccc2c2nc(C)nn12 (configuration not stated)	106.2	94.1	11.7	98.5
O=C(c1ccc[nH]1)c1cc2cc(Br)ccc2o1	80.1	92.7	-15.5	nt
